GLA inh pH 4.5: qHTS Assay for Inhibitors of Human alpha-Galactosidase at pH 4.5 | activity change, negative = inhibition, % at 105 µM | Alpha-galactosidase A (Homo sapiens), P06280 | 230,000 tested, under 10 active | purified enzyme, 4-MU-alpha-Gal fluorescence, pH 4.5 | AID 1467, 2008; inconclusive = small, poorly fitted or top-dose-only inhibition, or a rising curve; inactive = flat fitted curve, though single readings scatter; no compound was filed as active;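 further: 0% = full activity with enzyme and -100% = basal without enzyme; dose as in the result columns while the protocol names 77 µM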
miR-21 FLuc: qHTS Assay for Modulators of miRNAs and/orActivators of miR-21; HeLa miR-21 FLuc reporter, luciferase, 48 h; 340,000 tested, under 10 active; AID 2288, 2010; Potency, µM (highest dose often 38.3 µM), for inactives: top-dose reporter change, positive = more light; active = well fitted rising curve with a large enough effect; inconclusive = small, poorly fitted or top-dose-only effect; inactive = no such curve, though single readings can be large or run the other way;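 further: % of control where 0% means no effect; miR-21 action dims this reporter so a rising signal means less miR-21 action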
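HeLa cells stably expressing CMV-driven firefly luciferase with a downstream miR-21 binding sequence, endogenously expressing miR-21, were treated with titrations (up to about 40uM final) for 48 hours at 37 degree Celsius. Luciferase luminescence was read after lysis.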
Rango release inh: qHTS Assay for Inhibitors of RanGTP induced Rango (Ran-regulated importin-beta cargo) - Importin beta complex dissociation; Snurportin-1 (Homo sapiens) + GTP-binding nuclear protein Ran (Homo sapiens) + Importin …; Potency, µM (top dose mostly 46.1 µM), inactives show at the top dose activity change, negative = inhibition; AID 540253, 2011; Biochemical FRET Rango-importin beta, RanGTP-induced dissociation; 0.071% of 340,000 active; active means falling FRET ratio curve, often poorly fitted, with flat reads before Ran was added; inconclusive means other falling curves, or compound fluorescence or quenching; inactive means flat or rising ratio curve;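 further: potency means the concentration at half of the fitted maximal effect; % of control where 0% means no effect; nearly all actives have a fitted effect of over 45% in size; -100% = wells without RanGTP and RCC1; the record marks most hits as doubtful in a second field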
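Compounds preincubate 5 min with complex of recombinant Rango and importin beta in PBS with 1 mM DTT. Ran (0.6 uM) loaded with 2 mM GTP plus 0.2 uM RCC1 starts dissociation; FRET is recorded 45 min later.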
Rango complex inh: qHTS Assay for Inhibitors of Rango (Ran-regulated importin-beta cargo) - Importin beta complex formation; Importin subunit beta-1 (Homo sapiens), Q14974; Potency, µM (top dose mostly 92.2 µM), without a hit: at the top dose inhibition of complex formation; 0.031% of 340,000 active; Rango CFP/YFP FRET sensor + importin beta, 45 min; AID 540263, 2011; active = rising FRET ratio curve, often small or poorly fitted; inconclusive = mostly compound fluorescence or quenching in the first reads; inactive = flat curves in all reads;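 further: potency means the concentration at half of the fitted maximal effect; 0% = DMSO wells and 100% = buffer wells lacking importin beta; nearly all actives have a fitted effect of over 15% in size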
Target sequence (Q14974 whole entry, looked up): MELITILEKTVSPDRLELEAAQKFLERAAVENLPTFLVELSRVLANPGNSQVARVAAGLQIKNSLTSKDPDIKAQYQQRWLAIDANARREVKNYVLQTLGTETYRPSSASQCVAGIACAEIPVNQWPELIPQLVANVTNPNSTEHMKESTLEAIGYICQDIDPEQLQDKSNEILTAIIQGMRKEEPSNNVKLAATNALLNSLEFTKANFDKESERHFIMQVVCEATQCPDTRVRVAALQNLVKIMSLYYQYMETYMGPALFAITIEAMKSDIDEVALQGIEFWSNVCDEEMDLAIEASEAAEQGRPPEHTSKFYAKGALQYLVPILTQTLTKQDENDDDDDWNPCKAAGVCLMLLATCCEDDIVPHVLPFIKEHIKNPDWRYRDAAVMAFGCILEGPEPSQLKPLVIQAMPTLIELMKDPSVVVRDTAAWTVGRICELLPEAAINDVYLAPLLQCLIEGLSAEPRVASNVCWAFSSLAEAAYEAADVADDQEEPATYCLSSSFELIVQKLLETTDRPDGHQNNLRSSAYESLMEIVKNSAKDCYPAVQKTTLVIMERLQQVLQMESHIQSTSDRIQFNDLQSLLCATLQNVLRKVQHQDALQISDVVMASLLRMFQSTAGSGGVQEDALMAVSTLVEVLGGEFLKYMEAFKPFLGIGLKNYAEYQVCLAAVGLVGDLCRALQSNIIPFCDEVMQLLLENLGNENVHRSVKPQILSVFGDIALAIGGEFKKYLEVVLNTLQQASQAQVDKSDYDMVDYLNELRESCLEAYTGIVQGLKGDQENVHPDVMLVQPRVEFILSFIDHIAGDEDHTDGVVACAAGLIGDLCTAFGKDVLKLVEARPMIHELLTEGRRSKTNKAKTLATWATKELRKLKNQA
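Inhibition scored from the CFP 486 nm/YFP 530 nm FRET ratio 45 min after adding 0.125 microM importin beta to 50 nM Rango biosensor preincubated 5 min with compound (room temperature, PBS with DTT, Tween-20, BSA). No-importin wells as positive control.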
An asterisk follows results filed as active; & = joins results of further samples; [ ] = remark or other dose. These rows are one share of the data (hit frequency here may not be typical).

What do the screens show for `Cc1c(CCC(=O)N2CCC(C(=O)O)CC2)c(=O)oc2cc3oc4c(c3cc12)CCCC4`?
miR-21 FLuc: 17.4%; Rango release inh: 0.3%; Rango complex inh: -0.3%

How did Cc1ccc(/C=C/C(=O)N2CCN(c3ncccn3)CC2)o1 do in these assays?
GLA inh pH 4.5: 2.4; miR-21 FLuc: -4.2%; Rango release inh: -16.9%; Rango complex inh: 0.0%

What do the screens show for `Cc1nc2ccc(NC(=O)N3CCCCC3)cc2s1`?
GLA inh pH 4.5: -0.4; miR-21 FLuc: -38.7%; Rango release inh: -1.4%; Rango complex inh: -1.2%

What do the screens show for `CCOc1cc(/C=N/n2cnnc2)c(Br)cc1O`?
GLA inh pH 4.5: 0.3; miR-21 FLuc: 3.1%; Rango release inh: 2.9%; Rango complex inh: inconclusive

What do the screens show for `Cc1ccc(-c2nn(CCC#N)cc2C=C(C#N)C#N)cc1`?
GLA inh pH 4.5: 2.0; miR-21 FLuc: -10.8%; Rango release inh: 0.9%; Rango complex inh: -1.0%

How did CCOc1ccc(CCNS(=O)(=O)c2c(C)nc3scc(C)n3c2=O)cc1OCC do in these assays?
miR-21 FLuc: -1.0%&-7.0%; Rango release inh: 9.8%; Rango complex inh: -0.4%

Results for CN1C(=O)C(C(=O)Nc2ccccc2F)c2ccccc21 (stereo not given) ?
GLA inh pH 4.5: 2.8; miR-21 FLuc: -6.8%; Rango release inh: -11.0%; Rango complex inh: 0.1%

How did O=C(CN1C(=O)NC2(CCCC2)C1=O)N1CCN(c2ccccc2O)CC1 do in these assays?
Rango release inh: 4.4%; Rango complex inh: inconclusive

How did CCOC(=O)CSc1nc2ccccc2c(=O)n1-c1ccc(C(=O)NCCOC)cc1 do in these assays?
GLA inh pH 4.5: 8.1; miR-21 FLuc: -0.4%&-0.8%; Rango release inh: -4.7%; Rango complex inh: 0.6%

What do the screens show for `Cc1cccc(Oc2ccccc2NC(=O)C2=COCCO2)c1`?
Rango release inh: 17.8%; Rango complex inh: 2.1%

Results for O=C(OCC(O)CN1CCCCC1)C12CC3CC(CC(C3)C1)C2 (stereo not given) ?
GLA inh pH 4.5: -6.7; miR-21 FLuc: -12.5%; Rango release inh: 9.6%; Rango complex inh: 0.1%

What do the screens show for `CCOC(=O)C1CCCN(c2c(NCCCN(CC)c3cccc(C)c3)c(=O)c2=O)C1` (stereo not given)?
GLA inh pH 4.5: 0.3; miR-21 FLuc: -5.4%; Rango release inh: 19.3%; Rango complex inh: 1.9%

How did O=C(OCC(=O)c1ccc(Cl)cc1Cl)c1cnccn1 do in these assays?
miR-21 FLuc: 4.0%; Rango release inh: 8.6%; Rango complex inh: -2.7%

What do the screens show for `COc1ccc(C2C(C(C)=O)=C(O)C(=O)N2c2ccc(F)cc2)cc1` (stereo not given)?
miR-21 FLuc: -3.9%; Rango release inh: -3.9%; Rango complex inh: 0.5%

What do the screens show for `COc1ccc(-c2nc(CS(=O)CC(=O)NCc3ccccn3)c(C)o2)cc1` (stereo not given)?
GLA inh pH 4.5: 0.3; miR-21 FLuc: -4.0%; Rango release inh: -10.8%; Rango complex inh: 0.4%

Results for COc1ccc(OCC(=O)Nc2ccc(OC)c(S(=O)(=O)N3CCCCC3)c2)cc1 ?
Rango release inh: 2.8%; Rango complex inh: -1.1%

Results for O=C(Nc1ccccc1)c1ccc2nc(-c3ccco3)c(-c3ccco3)nc2c1 ?
GLA inh pH 4.5: -4.9; miR-21 FLuc: 11.1%; Rango release inh: inconclusive; Rango complex inh: inconclusive

How did CC(C)NCc1cccc([N+](=O)[O-])c1 do in these assays?
GLA inh pH 4.5: 0.0; miR-21 FLuc: -6.6%; Rango release inh: -3.0%; Rango complex inh: 0.1%

What do the screens show for `COC(=O)C1=C[C@@H](C(=O)OC)[C@@H]2C3=C(C(=O)C2(C)C)[C@H](C)n2c(=O)n(-c4ccccc4)c(=O)n2[C@@H]3C1`?
Rango release inh: 33.7%; Rango complex inh: 5.0%

Results for CN(C)S(=O)(=O)c1ccc(NC(=O)CSc2n[nH]c(=O)n2C2CC2)cc1 ?
GLA inh pH 4.5: -8.4; miR-21 FLuc: -1.2%; Rango release inh: 2.9%; Rango complex inh: -2.9%

What do the screens show for `CC(C)c1ccccc1OCC(=O)Nc1ccccc1C(=O)N1CCOCC1`?
miR-21 FLuc: 12.1%; Rango release inh: -0.1%; Rango complex inh: -1.3%

How did CC(OC(=O)CSc1ccc([N+](=O)[O-])cc1)C(=O)NCc1ccccc1 (stereo not given) do in these assays?
Rango release inh: -2.7%; Rango complex inh: -2.6%

Results for Cc1ccc(NC(=O)c2ccc3ccccc3n2)nc1 ?
GLA inh pH 4.5: -5.0; miR-21 FLuc: -36.3%; Rango release inh: -1.1%; Rango complex inh: 1.7%

How did CC(=O)Nc1ccc(NC(=O)/C(=C/c2ccco2)NC(=O)c2ccccc2)cc1 do in these assays?
GLA inh pH 4.5: 1.0; miR-21 FLuc: 2.2%; Rango release inh: 2.6%; Rango complex inh: 0.1%

Results for COC(=O)c1ccccc1C(=O)N1CCOCCN(C(=O)c2ccccc2C(=O)OC)CCOCC1 ?
GLA inh pH 4.5: 1.1; miR-21 FLuc: -1.8%; Rango release inh: 0.9%; Rango complex inh: -4.8%

How did Cn1c(=O)c2c(nc(NCc3ccccc3)n2Cc2ccc(F)cc2)n(C)c1=O do in these assays?
GLA inh pH 4.5: -15.2; miR-21 FLuc: 0.7%

Results for COc1ccc([N+](=O)[O-])cc1NC(=O)CCCOc1ccccc1 ?
GLA inh pH 4.5: -4.4; miR-21 FLuc: -9.8%; Rango release inh: -9.0%; Rango complex inh: 0.1%

How did O=C(CN(CC1CCCO1)C(=O)CNS(=O)(=O)c1ccc(F)cc1)NCc1ccccc1 (stereo not given) do in these assays?
miR-21 FLuc: -1.8%; Rango release inh: -17.9%; Rango complex inh: inconclusive

Results for COC(=O)c1cccc(-n2sc3ccccc3c2=O)c1 ?
Rango release inh: 13.4%; Rango complex inh: 0.8%

What do the screens show for `COc1ccc2cc(C(=O)Nc3ccccc3)sc(=O)c2c1OC`?
GLA inh pH 4.5: -6.3; miR-21 FLuc: -41.7%; Rango release inh: -11.7%; Rango complex inh: inconclusive

What do the screens show for `O=C(CCc1nc2ccccc2c(=O)[nH]1)N1CCN(C/C=C/c2ccccc2)CC1`?
GLA inh pH 4.5: -3.1; miR-21 FLuc: 17.4%; Rango release inh: 23.8%; Rango complex inh: 0.1%

What do the screens show for `O=C(NCC1CCCO1)c1csc2c1CCCC2` (stereo not given)?
GLA inh pH 4.5: 7.7; miR-21 FLuc: -25.7%; Rango release inh: 15.0%; Rango complex inh: 4.4%

How did O=C1Cc2cc(S(=O)(=O)Nc3cccc([N+](=O)[O-])c3)cc3c2N1CCC3 do in these assays?
miR-21 FLuc: -7.2%; Rango release inh: 2.3%; Rango complex inh: 2.2%

Results for Cc1cc(Br)c(NC(=O)COC(=O)CSc2nnc(-c3ccc(Cl)cc3)o2)c(Br)c1 ?
GLA inh pH 4.5: 3.1; miR-21 FLuc: -2.6%; Rango release inh: 1.4%; Rango complex inh: 7.3%

What do the screens show for `c1ccc2c(-c3cn4ccccc4n3)c[nH]c2c1`?
GLA inh pH 4.5: 3.2; miR-21 FLuc: -30.7%

How did CNc1ccc(OC(F)F)cc1C(=O)c1ccccc1 do in these assays?
GLA inh pH 4.5: -3.0; miR-21 FLuc: -16.6%; Rango release inh: 8.9%; Rango complex inh: 2.6%

Results for O=C(c1cc(=O)[nH]c2ccccc12)N1CCN(S(=O)(=O)c2ccc3ccccc3c2)CC1 ?
GLA inh pH 4.5: 1.2; miR-21 FLuc: 5.4%; Rango release inh: inconclusive; Rango complex inh: inconclusive

Results for Cn1c(Cc2ccccc2)nnc1SCc1ccc(C(=O)O)cc1 ?
GLA inh pH 4.5: 12.1; miR-21 FLuc: -3.7%; Rango release inh: -19.1%; Rango complex inh: -5.0%

What do the screens show for `CCOc1cccc(OCCOc2ccccc2[N+](=O)[O-])c1`?
miR-21 FLuc: -51.9%; Rango release inh: -0.7%; Rango complex inh: 1.7%

What do the screens show for `O=C(COC(=O)c1ccccc1Cl)NCc1ccco1`?
Rango release inh: 0.2%; Rango complex inh: 1.4%

What do the screens show for `COc1ccc(C(C#N)(CCC#N)CCC#N)cc1OC`?
GLA inh pH 4.5: -10.1; miR-21 FLuc: 6.3%; Rango release inh: -9.9%; Rango complex inh: -0.3%

How did Cc1ccc(S(=O)(=O)NCC(=O)N2CCN(S(=O)(=O)c3ccc(Cl)cc3)CC2)cc1C do in these assays?
Rango release inh: 0.3%; Rango complex inh: -1.7%

What do the screens show for `Cc1ccc(NC(=O)c2cc(NC(=O)C3CC=CCC3C(=O)O)ccc2N2CCOCC2)cc1Cl` (stereo not given)?
GLA inh pH 4.5: 6.8; miR-21 FLuc: -5.7%; Rango release inh: 24.7%; Rango complex inh: -4.6%

What do the screens show for `CC(=O)Nc1ccc(NC(=O)[C@@H]2CCCC[C@@H]2C(=O)O)cc1`?
GLA inh pH 4.5: 5.4[21.1 µM]; miR-21 FLuc: 1.4%; Rango release inh: -6.1%; Rango complex inh: 3.0%

What do the screens show for `CC(C)c1ccc(NC(=O)CSc2nc3ncccc3[nH]2)cc1`?
miR-21 FLuc: -23.8%; Rango release inh: -10.0%; Rango complex inh: -1.2%

How did COC(C[C@H]1O[C@H]1C(=O)COCc1ccccc1)OC do in these assays?
GLA inh pH 4.5: -13.7; miR-21 FLuc: 2.6%; Rango release inh: -7.2%; Rango complex inh: -1.1%

Results for Cc1cc(C)cc(N=c2c([N+](=O)[O-])nn(-c3ccc4c(c3)OCCO4)n2O)c1 ?
GLA inh pH 4.5: -5.5; miR-21 FLuc: -17.3%; Rango release inh: 0.2%; Rango complex inh: inconclusive

How did COc1ccc(/C=C/C(=O)OCc2cc(=O)n3c(n2)sc2ccccc23)cc1 do in these assays?
GLA inh pH 4.5: 4.6; miR-21 FLuc: -4.7%; Rango release inh: -8.7%; Rango complex inh: 7.3%

Results for COc1ccc(C)cc1NC(=O)CSc1nc(SC)ns1 ?
GLA inh pH 4.5: -4.6; miR-21 FLuc: -1.7%; Rango release inh: -23.0%; Rango complex inh: -1.1%

What do the screens show for `COc1ccc(CC(=O)c2ccc(OC)c(OC)c2)cc1`?
GLA inh pH 4.5: -2.8; miR-21 FLuc: -53.6%; Rango release inh: -5.9%; Rango complex inh: -9.9%

What do the screens show for `Cc1ccc(OCC(=O)c2cc(C)n(C3CC3)c2C)c([N+](=O)[O-])n1`?
GLA inh pH 4.5: 2.3; miR-21 FLuc: -44.8%; Rango release inh: 10.7%; Rango complex inh: -0.6%

What do the screens show for `CCOc1ccccc1NC(=O)c1ccccc1NC(=O)c1ccco1`?
miR-21 FLuc: 4.4%; Rango release inh: -10.2%; Rango complex inh: -0.7%

Results for Cc1cc(OCC(=O)NCCN2CCOCC2)cc(C)c1Cl ?
miR-21 FLuc: -6.1%; Rango release inh: 3.3%; Rango complex inh: 4.9%

What do the screens show for `Cc1[nH]c(=O)[nH]c(=O)c1S(=O)(=O)Nc1cccc(C(F)(F)F)c1`?
miR-21 FLuc: 0.0%; Rango release inh: -8.9%; Rango complex inh: 3.2%

How did COCc1cc(=O)[nH]c(SCC(=O)Nc2ccccc2)n1 do in these assays?
GLA inh pH 4.5: 3.5; miR-21 FLuc: -2.0%; Rango release inh: 11.1%; Rango complex inh: -3.0%

Results for N#Cc1c(-c2cccs2)cc(C2CC2)nc1SCC(N)=O ?
GLA inh pH 4.5: 2.0; miR-21 FLuc: -13.3%; Rango release inh: -16.3%; Rango complex inh: -2.6%

Among those listed so far, these contain a thiophene ring, fused or not.
What do the screens show for `O=C(NCC1CCCO1)c1csc2c1CCCC2` (stereo not given)?
GLA inh pH 4.5: 7.7; miR-21 FLuc: -25.7%; Rango release inh: 15.0%; Rango complex inh: 4.4%

Results for N#Cc1c(-c2cccs2)cc(C2CC2)nc1SCC(N)=O ?
GLA inh pH 4.5: 2.0; miR-21 FLuc: -13.3%; Rango release inh: -16.3%; Rango complex inh: -2.6%
